MbtI inh – MbtI salicylate synthase inhibitors, primary screen, biochemical, fluorescence intensity. actives 0.89% (n = 100,000). inhibition, %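 (about 17 µg/mL by stock and volumes)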. P9WFX0. purified MbtI enzyme, fluorescence intensity read-out;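 active = above 50% in both replicates, above 80% if mildly self-fluorescent; inactive = the rest, strongly fluorescent compounds included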;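 also: 0% = mean of negative and 100% = mean of positive controls; one replicate is shown; some compounds called inactive have numbers as strong as hits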
Target sequence (P9WFX0 whole entry, looked up): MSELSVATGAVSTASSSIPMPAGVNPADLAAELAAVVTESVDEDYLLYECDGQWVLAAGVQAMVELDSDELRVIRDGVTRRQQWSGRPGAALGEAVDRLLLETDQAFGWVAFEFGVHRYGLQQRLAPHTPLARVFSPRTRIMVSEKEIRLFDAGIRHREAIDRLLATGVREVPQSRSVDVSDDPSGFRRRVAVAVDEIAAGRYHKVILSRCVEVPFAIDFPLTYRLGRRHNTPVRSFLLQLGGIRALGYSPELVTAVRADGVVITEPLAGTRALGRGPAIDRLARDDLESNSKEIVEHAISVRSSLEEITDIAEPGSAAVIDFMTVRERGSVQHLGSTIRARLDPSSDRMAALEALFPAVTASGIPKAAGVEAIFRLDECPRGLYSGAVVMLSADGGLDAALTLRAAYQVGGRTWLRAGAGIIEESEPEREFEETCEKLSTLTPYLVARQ
PV pol inh – poliovirus RdRp elongation inhibitors, primary screen, biochemical, fluorescence polarization, total intensity. Genome polyprotein (Poliovirus type 1 (strain Mahoney)), P03300. poliovirus polymerase elongation; active compounds read low. % elongation, % (compound at 16.7 µg/mL). actives 0.66% (n = 150,000). AID 588519, 2011; in the data active = % elongation below about 90%; also: some results filed as inactive read as strong as hits
Target sequence (P03300 1749-2209 limits assumed): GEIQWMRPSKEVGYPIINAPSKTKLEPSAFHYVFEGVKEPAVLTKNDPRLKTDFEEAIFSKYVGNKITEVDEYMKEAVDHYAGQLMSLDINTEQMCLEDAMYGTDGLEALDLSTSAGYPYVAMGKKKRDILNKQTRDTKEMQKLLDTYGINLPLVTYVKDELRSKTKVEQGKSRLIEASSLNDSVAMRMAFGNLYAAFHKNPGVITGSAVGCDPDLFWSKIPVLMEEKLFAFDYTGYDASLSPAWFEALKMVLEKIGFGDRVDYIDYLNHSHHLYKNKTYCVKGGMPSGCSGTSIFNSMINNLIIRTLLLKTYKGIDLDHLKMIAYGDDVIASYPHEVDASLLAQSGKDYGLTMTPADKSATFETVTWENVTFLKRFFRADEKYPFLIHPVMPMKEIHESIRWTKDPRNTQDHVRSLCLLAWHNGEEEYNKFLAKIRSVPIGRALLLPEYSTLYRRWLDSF
MenB inh – M. tuberculosis MenB inhibitors, primary screen, biochemical, absorbance; 1,4-dihydroxy-2-naphthoyl-CoA synthase (Mycobacterium tuberculosis (strain ATCC 25618 / …; MenB enzyme assay, absorbance read-out; some hits fall short of the stated cut; inhibition, %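 (about 12 µg/mL by stock and volumes)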; actives 0.43% (n = 100,000);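 active = mean of two replicates above 30%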;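 also: 0% = no compound and 100% = wells with inactive enzyme; the first replicate is given; strong numbers were not always called active; inactives centre near -10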
PV pol inh intensity – second read-out of PV pol inh, no call of its own (marks repeat the call); % elongation; measured here: total intensity read-out; formula for this scale not given here;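 total fluorescence in place of polarization; lower means less elongation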
* marks the source's active call; other numbers are inactive results; i = inactive; nt = not tested or not shown; & = joins results of further samples.

SMILES	MbtI inh	PV pol inh	PV pol inh intensity	MenB inh
Cc1cccc(NC(=O)c2cccnc2)c1C	nt	110.0	112.0	-15.1
NS(=O)(=O)c1ccc(CNC(=O)c2cccc(Cl)c2)cc1	2.4	101.0	96.0	-7.4
Cc1cccc(-n2ccnc2SCC(=O)N2CCC(C(N)=O)CC2)c1C	15.2	99.0	97.0	-0.9
NC(=O)c1nn(CC(=O)N2CCN(Cc3nc4ccccc4s3)CC2)c(=O)c2ccccc12	-2.0	105.0	98.0	-24.6
CN(Cc1ccccc1)C(=O)CSc1nc2ccccc2c(=O)n1Cc1ccco1	-1.3	101.0	106.0	-13.3
N#Cc1nc2c(C#N)c(N)n(CCc3ccccc3)c2nc1C#N	nt	107.0	122.0	-15.3
COC(=O)CSC1=NS(=O)(=O)c2ccccc2N1	6.5	104.0	104.0	-18.4
CCOC(=O)c1c(C)[nH]c(/C=N/NC(=S)NCc2ccco2)c1Cc1cccc(Cl)c1	-4.6	105.0	109.0	-88.1
CCCCN(CC)C(=O)c1ccccc1SCC	2.9	99.0	100.0	-11.0
Nc1cc(N)nc(SCC(=O)N2CCCCC2)n1	22.6	107.0	98.0	-40.0
CC1CCCC(C)N1NC(=O)c1cccc(N(C)C)c1 (stereo unspecified)	53.6	103.0	106.0	-0.1
CCc1ccc(C2C3=C(CCCC3=O)Nc3[nH]n(-c4ccccc4)c(=O)c32)cc1 (stereo unspecified)	2.7	105.0	108.0	1.3
Cn1c(SCc2cccc(C#N)c2)nc2ccccc2c1=O	-8.7	102.0	104.0	-33.7
Clc1nc(NCCN2CCOCC2)nc(NC2CCCCC2)n1	12.3	101.0	106.0	1.4
CCn1c(-c2csc3ccccc23)n[nH]c1=S	47.5	99.0	100.0	-24.8
O=C(c1ccco1)N1N=C(c2ccccc2)CC1c1ccccc1 (stereo unspecified)	69.8	98.0	100.0	-61.1
COc1ccc(C2CCCCCN2C(=O)c2nn(C)c(=O)c3ccccc23)cc1 (stereo unspecified)	2.7	95.0	104.0	2.3
Cc1nc2ccccc2c2oc(C(=O)NCCN(C)C3CCCCC3)cc12	191.8	96.0	98.0	-1.4
Cc1ccc2cc3cc(C(=O)NCCCN4CCCCCC4)sc3nc2c1	3.9	98.0	101.0	-0.6
CCC(=O)N1c2ccc(S(=O)(=O)NC3CCCCC3C)cc2CC1C (stereo unspecified)	-2.2	101.0	97.0	-23.5
O=C(c1ccccn1)N1CCC(C(O)(c2ccccc2)c2ccccc2)CC1	-12.4	108.0	108.0	-24.3
O=S(=O)(NCC(O)CN1CCOCC1)c1ccc2ccccc2c1 (stereo unspecified)	-9.6	109.0	112.0	-5.1
N/N=c1/nc2sccn2c2ncccc12	199.5	104.0	103.0	7.7
CN(C)/C=C/C(=O)c1cc(F)ccc1O	1.6	101.0	105.0	-13.2
CCn1c2ccccc2c2cc(CN3CCN(Cc4cccc(C)c4)CC3)ccc21	8.4	100.0	103.0	-14.2

Entries of single compounds, quoted from the list. Values in the order: MbtI inh	PV pol inh	PV pol inh intensity	MenB inh
Cn1c(SCc2cccc(C#N)c2)nc2ccccc2c1=O as listed: -8.7	102.0	104.0	-33.7
Clc1nc(NCCN2CCOCC2)nc(NC2CCCCC2)n1 as listed: 12.3	101.0	106.0	1.4
Cc1cccc(NC(=O)c2cccnc2)c1C as listed: nt	110.0	112.0	-15.1

Next compounds
SMILES	MbtI inh	PV pol inh	PV pol inh intensity	MenB inh
CCC(C)NC(=O)CSc1ncccc1C(=O)OC(C)C (stereo unspecified)	-5.3	104.0	104.0	-24.1
Cc1noc(C)c1COC(=O)C1CSC2(C)CCC(=O)N12 (stereo unspecified)	-13.6	102.0	106.0	-7.1
CCc1ccc(NC(=O)NC2CCN(Cc3ccccc3)CC2)cc1	-10.9	103.0	98.0	-34.0
O=C(Nc1nc(-c2ccc3c(c2)CCCC3)cs1)c1cccnc1	-2.2	102.0	104.0	nt
CC(=O)Nc1cccc(C(=O)NCCc2nc3ccccc3[nH]2)c1	-4.7	97.0	102.0	11.8
NNC(=O)OC12CC3CC(CC(C3)C1)C2	-1.8	102.0	101.0	-6.0
CCc1ccc(NC(=O)N(C2CCCCC2)C(C)c2cccnc2)cc1 (stereo unspecified)	10.7	99.0	100.0	-11.6
O=C(CSC1=NCCS1)NC1CCCc2ccccc21 (stereo unspecified)	7.3	102.0	103.0	-12.2
Cn1ncc(NC(=O)Nc2ccc(F)cc2F)c1C(N)=O	-11.3	99.0	101.0	-6.1
CN(C)S(=O)(=O)c1ccc(C(=O)C2=C3SC=C(c4ccc(F)cc4)N3CC2)cc1	-5.2	116.0	122.0	-15.0
Cc1nn(-c2ccc(Cl)cc2)c2sc(C(=O)OCCC3CCCCN3C)cc12 (stereo unspecified)	12.9	102.0	97.0	4.3
CCOC(=O)C1CCCN(Cc2ccccc2)C1 (stereo unspecified)	5.4	105.0	105.0	-4.1
CNC(=O)CSc1nnc(-c2ccco2)n1CC1CCCO1 (stereo unspecified)	3.0	100.0	100.0	42.6*
C/C(=C\C(=O)c1ccccc1)Nc1cccc(O)c1	-8.3	100.0	102.0	-47.0
CN(CC(F)(F)C(F)F)S(=O)c1ccc2ccccc2c1 (stereo unspecified)	6.8	nt	nt	-8.1
N#Cc1ccccc1N=Cc1cccc(O)c1O	nt	94.0	90.0	-42.7
COC(=O)Cn1c(=N)n(Cc2ccc(C(C)(C)C)cc2)c2ccccc21	-2.3	101.0	100.0	-17.6
COCCN1CCn2c(nc3cc(NC(C)=O)ccc32)C1	27.7	101.0	106.0	-14.8
CC1CC(C)CN(C(=O)Nc2cccc(Cl)c2)C1 (stereo unspecified)	-4.9	102.0	103.0	-1.2
COc1ccc(C(=O)O)cc1	0.9	103.0	104.0	-15.0
CN(C)C(=S)Nc1ccccc1OC(F)F	87.7*	98.0	101.0	-13.9
O=C1c2ccccc2S(=O)(=O)NN1CCN1C(=O)c2ccccc2S1(=O)=O	3.4	nt	nt	-4.6
O=C(c1ccccc1)N1CCC(O)(c2ccccc2)[C@H]2CCCC[C@H]21 (stereo partly specified)	nt	102.0	105.0	-2.8
c1cc2c(nn1)CCc1nonc1-2	8.2	102.0	103.0	-8.7
CC1=C(C#N)c2nc(N)c(C#N)c(C)c2/C1=C\c1ccccc1	nt	107.0	113.0	4.6

2 entries from above, field by field:
NNC(=O)OC12CC3CC(CC(C3)C1)C2
  MbtI inh = -1.8
  PV pol inh = 102.0
  PV pol inh intensity = 101.0
  MenB inh = -6.0

CCc1ccc(NC(=O)N(C2CCCCC2)C(C)c2cccnc2)cc1 (stereo unspecified)
  MbtI inh = 10.7
  PV pol inh = 99.0
  PV pol inh intensity = 100.0
  MenB inh = -11.6

(list continues)
SMILES	MbtI inh	PV pol inh	PV pol inh intensity	MenB inh
O=C(CSCc1ccco1)NCc1ccccc1Cl	7.7	101.0	106.0	nt
CCc1ccc(NC(=O)CCCN2C(=O)COc3ccc(C)cc32)cc1	-2.2	103.0	102.0	-38.6
CCOC(=O)c1cnc(SCC)[nH]c1=O	50.0	100.0	100.0	4.9
Cc1cc(C)c(/C=C(\C#N)C(N)=O)c(C)c1	-7.8	99.0	99.0	-46.4
CSc1ccc(CN(C)CC(=O)NC(=O)Nc2ccc3c(c2)OCCO3)cc1	-9.6	108.0	103.0	-28.9
COc1ccc(-c2[nH]c3ccccc3c2SCCNC(=O)c2ccc(OC)c(OC)c2)cc1	104.8	98.0	101.0	-21.7
CN1CCN(CCCNC(=O)Cc2ccc(NC(=O)N3CCSc4ncccc43)cc2)CC1	1.0	100.0	100.0	-3.8
COCCN(Cc1c(-c2cccs2)n(C)c2ccccc12)C(=O)Nc1ccccc1	139.0	103.0	105.0	-24.2
O=C(COc1ccc2oc(-c3ccccc3)cc(=O)c2c1)N1CCCCC1	i	101.0	98.0	0.6
O=C(COc1ccccc1)NCc1nc(-c2ccccc2)no1	9.3	103.0	102.0	-9.0
NC(=O)c1ccccc1NC(=O)CS(=O)(=O)Cc1ccccc1	-27.3	98.0	100.0	-2.9
O=C(OCc1cccc(Cl)c1)c1ccc2c(c1)OCO2	-1.6	102.0	103.0	-26.7
CCC1N(c2ccccc2)CCN1c1ccccc1	5.7	106.0	103.0	-21.2
CNC(=O)c1c(O)c2cccc3c2n(c1=O)CCC3	nt	106.0	116.0	-6.2
CCOC(=O)c1c(N)sc2c1CCN(C(=O)OCC)C2	7.4	104.0	95.0	-23.3
O=c1c2ccccc2[nH]c(=S)n1CC1CCCO1 (stereo unspecified)	-6.8	98.0	103.0	-30.0
S=C(NC1CCCCC1)N1CCCCCC1	4.3	103.0	103.0	10.0
COC(=O)c1ccc(C(c2c(N)n(C)c(=O)n(C)c2=O)N2CCN(c3ccccc3)CC2)cc1 (stereo unspecified)	-8.7	103.0	105.0	-32.9
CCOC(=O)c1ccc(-c2ccc(/C=c3/sc4nc5c(C)c(C)ccc5n4c3=O)o2)cc1	24.2	98.0	107.0	-18.8
O=C1CSC(c2ccccc2)N1Cc1ccccn1 (stereo unspecified)	1.1	102.0	105.0	11.9
Cc1cc(C)n(-c2ccc(C(=O)NC3CCCCC3)cc2)n1	-1.8	104.0	105.0	nt
Cc1c(C)c(C)c2[nH]c(-c3ccc4c(c3)OCO4)nc2c1C	-5.1	100.0	104.0	-1.1
COC(=O)c1ccc(N2C(=O)Cc3c2nc(N)c2c(N)nc(N(C)C(C)C)c(C#N)c32)cc1	-32.1	106.0	105.0	-3.7
Cc1ccc(S(=O)(=O)NC(C)C(=O)O)cc1 (stereo unspecified)	1.3	99.0	97.0	4.8
N#C/C(=C1/CCCCCN1)c1nc2ccccc2[nH]1	2.0	99.0	106.0	nt
Going on with the list:
SMILES	MbtI inh	PV pol inh	PV pol inh intensity	MenB inh
N#Cc1nc(-c2cccc(Cl)c2)oc1NCCc1ccccc1	i	100.0	100.0	-3.0
CC(C)(C)c1nc(CN2CCOCC2)cc(CN2CCOCC2)c1O	-13.9	101.0	102.0	-55.4
O=C(O)CC12CC3CC(C1)CC(C(=O)O)(C3)C2	-0.5	103.0	104.0	nt
N#CC(C(=O)c1ccc(F)cc1)c1nc2ccccc2c(=O)[nH]1 (stereo unspecified)	-0.5	100.0	100.0	nt
Cc1c(NC(=O)Cc2ccc(S(=O)(=O)N3CCCCC3)cc2)c(=O)n(-c2ccccc2)n1C	1.9	nt	nt	0.2
CC(O)CNc1nc2ccccc2n1CC(O)COCc1ccco1 (stereo unspecified)	-2.1	110.0	110.0	-19.9
N#Cc1ccc(NC(=O)CNCC2CCCCC2)cc1	-1.3	101.0	98.0	-0.4
CC(C)(C)OC(=O)N1CCC(C(=O)OCC(=O)c2ccc3c(c2)CCC3)CC1	-0.8	102.0	102.0	-10.1
COc1cc(C(=S)N2CCCC2)cc(Cl)c1O	47.0	103.0	102.0	-24.8
Cc1ccc(-c2noc(CCCCCN)n2)cc1	-8.4	nt	nt	0.0
O=C(N/N=C/c1ccccc1)c1n[nH]c(=O)c2ccccc12	3.5	107.0	101.0	11.3
CCc1ccccc1OCCSc1ncccn1	-14.8	100.0	104.0	-22.0
O=c1ccnc(SCc2ccc(CSc3nccc(=O)[nH]3)cc2)[nH]1	3.5&13.8	103.0&99.0	100.0&107.0	-67.0&3.9
O=S(=O)(c1ccc(Cl)cc1)N1CN(Cc2cccs2)c2nc3ccccc3nc21	-14.3	nt	nt	-11.9
CC(N)C(=O)Nc1ccc2c(c1)Cc1ccccc1-2 (stereo unspecified)	-55.4	101.0	102.0	-14.2
CCN(CC)C(=O)c1cc(-c2ccc(OC)c(OC)c2)on1	-5.1	100.0	106.0	-15.9
CCCc1n(CC(O)COCC2CC=CCC2)c2ccccc2[n+]1C (stereo unspecified)	-7.8	102.0	104.0	-15.2
Cc1ccc(CNc2ncnc3c2oc2ccccc23)cc1	-12.0	106.0	110.0	-17.9
Cc1ccc(S(=O)(=O)N(C)S(=O)(=O)c2ccc(C#N)cc2)cc1	-0.7	98.0	99.0	-11.4
O=C(NCN1CCCCC1)Nc1cccc(Cl)c1	-1.6	102.0	103.0	36.3
CC1CCCCC1NC(=O)Cn1nnc(-c2ccc(N(C)C)cc2)n1 (stereo unspecified)	36.9	106.0	100.0	-43.9

Exported as a markdown table: entries from further up
| SMILES | MbtI inh | PV pol inh | PV pol inh intensity | MenB inh |
| --- | --- | --- | --- | --- |
| O=C(NCN1CCCCC1)Nc1cccc(Cl)c1 | -1.6 | 102.0 | 103.0 | 36.3 |
| N#Cc1nc(-c2cccc(Cl)c2)oc1NCCc1ccccc1 | i | 100.0 | 100.0 | -3.0 |
| Cc1ccc(S(=O)(=O)N(C)S(=O)(=O)c2ccc(C#N)cc2)cc1 | -0.7 | 98.0 | 99.0 | -11.4 |
| O=C(O)CC12CC3CC(C1)CC(C(=O)O)(C3)C2 | -0.5 | 103.0 | 104.0 | nt |
| CC(O)CNc1nc2ccccc2n1CC(O)COCc1ccco1 (stereo unspecified) | -2.1 | 110.0 | 110.0 | -19.9 |
| CCc1ccccc1OCCSc1ncccn1 | -14.8 | 100.0 | 104.0 | -22.0 |
| CCCc1n(CC(O)COCC2CC=CCC2)c2ccccc2[n+]1C (stereo unspecified) | -7.8 | 102.0 | 104.0 | -15.2 |

Screening results as filed in PubChem BioAssay.

Compounds were not picked by outcome (roughly 2% active in at least one column).
